High-throughput results from PubChem.
MLL AF4-AF9 inh – inhibitors of AF4 peptide binding to AF9, primary screen, biochemical, AlphaScreen, biotin-AF4 peptide, FLAG-AF9, single point | Protein AF-9 (Homo sapiens), P42568 | inhibition, % at 10 µM | 0.47% of 350,000 active;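 active means every replicate reaching a set inhibition limit, whatever the replicate mean, cut at about 25% in these data; inconclusive means mean inhibition reaches that limit but some replicates miss it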;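 further: 0% = plate neutral control median and 100% = total signal loss; the record names both 10 and 1 µM as test concentration; the first replicate is given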
Target sequence (P42568 whole entry, looked up): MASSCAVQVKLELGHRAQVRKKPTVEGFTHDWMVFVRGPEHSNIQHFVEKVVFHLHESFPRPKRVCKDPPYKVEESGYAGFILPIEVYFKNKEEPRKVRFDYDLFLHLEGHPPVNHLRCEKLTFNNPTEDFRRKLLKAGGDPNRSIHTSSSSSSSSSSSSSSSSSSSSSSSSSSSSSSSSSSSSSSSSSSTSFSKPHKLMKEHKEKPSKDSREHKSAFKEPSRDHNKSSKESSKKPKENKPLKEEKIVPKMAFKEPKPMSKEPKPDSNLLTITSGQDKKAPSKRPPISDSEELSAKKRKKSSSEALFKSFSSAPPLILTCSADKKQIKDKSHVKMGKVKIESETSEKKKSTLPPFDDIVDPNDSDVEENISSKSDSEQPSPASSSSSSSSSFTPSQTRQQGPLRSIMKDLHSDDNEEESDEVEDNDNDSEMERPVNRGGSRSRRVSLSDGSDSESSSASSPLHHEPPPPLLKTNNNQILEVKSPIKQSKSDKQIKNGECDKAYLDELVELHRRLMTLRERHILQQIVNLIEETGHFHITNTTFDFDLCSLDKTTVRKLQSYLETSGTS
A1 inh – caspase 3/7 activation in MEF A1-2A-BIM cells, primary screen, A1 inhibitor project, cell-based, luminescence, HTS. 0.066% of 330,000 active. AID 2462, 2010. caspase activation, % (test concentration not listed). Caspase-Glo 3/7 luminescence, 3 h; percent of clofoctol response, vehicle zero;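 active means over half of replicate activation scores above 10%, or exactly half above 10 with the replicate mean above 10; inconclusive means replicate mean below 10 yet half the replicates above 10; inactive means over half of replicates below 10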;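 further: wells of about 30 µL received 50 nL stock; many hits fall short of the cut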
FGF22 binding – binders of human FGF22 protein, primary screen, FGF22 synaptogenesis inhibitor project, biophysical, thermal shift, single point | AID 651658, 2012 | recombinant FGF22 thermal shift, SYPRO orange fluorescence; percent of sucrose octasulfate shift, DMSO zero | Fibroblast growth factor 22 (Homo sapiens), Q9HCT0 | 1.5% of 340,000 active | calls only at 9.99 µM;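 active means melting point raised past a set limit in the mean and every replicate; inconclusive means no clear call; three in four hits are not shown here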
Target sequence (Q9HCT0 whole entry, looked up): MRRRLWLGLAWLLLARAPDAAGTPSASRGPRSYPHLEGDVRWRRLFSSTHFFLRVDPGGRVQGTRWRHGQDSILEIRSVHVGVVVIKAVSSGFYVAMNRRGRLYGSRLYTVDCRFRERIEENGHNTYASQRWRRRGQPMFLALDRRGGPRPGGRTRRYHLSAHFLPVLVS
UCH37 DUB inh – inhibitors of human UCH37 deubiquitinase, primary screen, biochemical, Ub-AMC cleavage, fluorescence; inhibition, % (test concentration not listed); Ubiquitin carboxyl-terminal hydrolase isozyme L5 (Homo sapiens), Q9Y5K5; purified proteasome/UCH37; 0.33% of 330,000 active;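 active means mean of two replicates above 20%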;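 further: 0% = compound-free wells with enzyme and 100% = wells lacking proteasome; stock transfer was 100 nL into about 20 µL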
Target sequence (Q9Y5K5 whole entry, looked up): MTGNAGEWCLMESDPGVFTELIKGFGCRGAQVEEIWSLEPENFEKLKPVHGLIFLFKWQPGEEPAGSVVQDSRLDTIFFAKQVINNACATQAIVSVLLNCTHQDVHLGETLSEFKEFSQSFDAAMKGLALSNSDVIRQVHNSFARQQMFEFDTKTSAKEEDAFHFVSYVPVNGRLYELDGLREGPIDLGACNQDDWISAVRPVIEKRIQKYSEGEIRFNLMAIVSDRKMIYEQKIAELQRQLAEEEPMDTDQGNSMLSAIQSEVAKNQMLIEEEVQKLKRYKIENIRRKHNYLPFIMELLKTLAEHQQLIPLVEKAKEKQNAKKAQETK
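Test system – human UCH37 enzyme supplied as purified proteasome complex · Incubation – 30 min preincubation with enzyme, 25 min cleavage at room temperature · Detection – AMC fluorescence from Ub-AMC cleavage, excitation 355 nm, emission 460 nm · Benchmarks – no-proteasome wells (full inhibition) and compound-free wells (no inhibition)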
rRNA inh HTS – reduced GFP signal of wild-type E. coli, primary screen, bacterial rRNA inhibitor project, GFP/RFP fluorescence, OD600, single point; E. coli WT GFP vs humanized-ribosome RFP mutants, 24 h; hits give low values; DMSO median 0, no signal -100; GFP signal change (wild-type ribosome), % (concentration not given with the values); 1.6% of 350,000 active; AID 720706, 2013;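 active means significant combined selectivity score with lowered wild-type GFP, culture density cut under 30%, mutant RFP and density less affected; inactive means any of these conditions unmet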; further: one replicate is shown; some compounds called inactive have numbers as strong as hits
T cruzi inh – inhibitors of intracellular T. cruzi growth, primary screen, luminescence, NIH3T3 host cells | AID 1885, 2009 | inhibition, % (no concentration beside the values) | 1.4% of 300,000 active | T. cruzi beta-gal in NIH3T3, 90 h;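 active means mean inhibition across valid replicates above about 55%, limit read from the data; inconclusive means mean below that limit but half or more replicates reach it; inactive means mean below it, under half of replicates reach it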;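 further: signal also drops with host cell toxicity which is not excluded here; 0% = plate median of DMSO wells and 100% = zero luminescence signal; higher percent means less beta-gal luminescence so fewer parasites; stock transfer was 50 nL into about 50 µL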
Beta cell apopt – inhibitors of cytokine-induced beta cell apoptosis, primary screen, luminescence; protection from apoptosis, % (concentration not given with the values); INS-1E cytokine-induced death, ATP luminescence, 48 h; percent of positive-control rescue, neutral wells zero; 0.8% of 300,000 active;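 active means all replicates at 75% or more, or half of them and the mean; inconclusive means half reach 75% but not the mean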;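 further: 0% = cytokine-treated negative control wells and 100% = positive control rescue; higher means more ATP so stronger rescue from cytokine killing; wells of about 40 µL received 100 nL stock; the first replicate is given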
E coli growth – E. coli growth inhibition, primary screen, OD600 | Escherichia coli growth, 23 h; hits give low values | OD600 absorbance (test concentration not listed) | 0.21% of 330,000 active;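 active means OD600 absorbance below the run mean of sample wells minus 3.6 SD, in any replicate, cut at about 0.56 in these data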;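 further: stock transfer was 300 nL into about 60 µL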
rRNA inh HTS OD600 – also measured in rRNA inh HTS; calls as there; OD600 change, %; measured here: OD600 growth;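 optical density of the mix in the first replicate; 0 = DMSO median and -100 = no signal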
rRNA inh HTS RFP – also measured in rRNA inh HTS; calls as there; RFP signal change, %; measured here: RFP humanized mutant strains;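 first replicate; 0 = DMSO median and -100 = no signal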
Starred values were filed as active, the others as inactive; i = inactive; ? = inconclusive; nt = no result given. A portion of the library (hit frequency here may not be typical).

SMILES	MLL AF4-AF9 inh	A1 inh	FGF22 binding	UCH37 DUB inh	rRNA inh HTS	rRNA inh HTS OD600	rRNA inh HTS RFP	T cruzi inh	Beta cell apopt	E coli growth
c1ccc(CSC2=NCCS2)cc1	-2.2	0.3	i	2.2	12	12	0.8	-8	-8	0.66
O=C(Nc1ccc(F)cc1F)NC1CCN(Cc2c(F)cccc2Cl)CC1	0.6	0.7	i	0.5	20	11	2.6	nt	9	0.63
CC(=O)Oc1ccccc1C1OC(=O)c2ccccc2N1C(C)=O (stereo not given)	nt	0.4	nt	-2.4	nt	nt	nt	-24	-7	0.73
COc1ccc(-n2c(O)c(C=NC3CC3)c(=O)[nH]c2=O)cc1	nt	0.6	nt	1.3	nt	nt	nt	-10	-1	0.68
Cc1c([N+](=O)[O-])cc(C(=O)N2CCOCC2)cc1[N+](=O)[O-]	3.3	0.7	i	3.1	10	1	-1.4	-2	1	0.69
O=C(c1ccc(-c2ccccc2Cl)o1)N1CCC1	-5.7	nt	i	7.7	-16	-35	-3.3	nt	nt	0.67
COc1ccc(CCCc2nnc(SCC(=O)Nc3cc(C)c(C)cc3Br)o2)cc1	nt	-1.2	nt	3.3	nt	nt	nt	8	1	0.74
CCC(=O)Nc1ccc(NCc2cccs2)cc1	-0.3	-0.6	i	2.3	7	6	-3.4	-7	7	0.6
COc1cccc(OC)c1C(=O)N1CCN(Cc2ccccc2C)CC1	nt	0.0	nt	2.2	nt	nt	nt	nt	-8	0.73
CCOC(=O)C1=C(CCc2ccccc2)NC(=O)NC1c1ccc(C#N)cc1 (stereo not given)	-0.1	-3.3	i	5.7	-8	-13	-2.2	0	-6	0.62
O=C(O)CC1S/C(=N\N=C/c2ccccc2)N(c2ccc(O)cc2)C1=O (stereo not given)	-1.9	2.0	i	nt	18	3	0.2	-13	-8	nt
Cc1cc(NC(=O)/C=C/c2ccc(F)cc2)n(-c2nc3ccccc3[nH]2)n1	3.8	0.2	i	-16	8	16	13	17	40	0.66
O=C(NNC(=S)NCc1ccc(Cl)cc1)c1ccc(Br)o1	-1.4	-0.9	i	0.3	-55	-81	-32	-6	-14	0.69
O=C1CSc2ccc(C(=O)O)cc2N1	-4.1	1.4	nt	-0.9	9	13	-0.4	-11	nt	0.69
Cc1cc(Br)cc2cn[nH]c12	-1.2	-0.4	i	0.9	-10	-9	-2.2	8	-12	0.68

Looked up above:
Result of O=C(NNC(=S)NCc1ccc(Cl)cc1)c1ccc(Br)o1 under rRNA inh HTS: -55
Result of Cc1c([N+](=O)[O-])cc(C(=O)N2CCOCC2)cc1[N+](=O)[O-] under rRNA inh HTS RFP: -1.4

(more compounds)
SMILES	MLL AF4-AF9 inh	A1 inh	FGF22 binding	UCH37 DUB inh	rRNA inh HTS	rRNA inh HTS OD600	rRNA inh HTS RFP	T cruzi inh	Beta cell apopt	E coli growth
N#CC1=C(N)Oc2n[nH]c(-c3cccs3)c2C1c1cccnc1 (stereo not given)	nt	-0.3	nt	5.7	nt	nt	nt	1	2	0.69
CC1(C)CC(NC(=O)COc2cc3oc(=O)c4c(c3cc2Cl)CCC4)CC(C)(C)N1	0.6	0.6	i	-11	13	12	2.0	-15	7	0.67
COc1cccc(NC(=O)N2C3CCCC2CC(NC(C)=O)C3)c1 (stereo not given)	3.4	0.7	i	-0.6	13	7	0.8	-10	-2	0.66
CC(C)COc1ccc(-c2nn(-c3ccccc3)cc2CO)cc1	-2.5	-0.8	i	1.0	-5	-3	-2.9	23	7	0.66
CC1C(=O)N2CCCc3cc(NS(C)(=O)=O)cc1c32 (stereo not given)	-3.1	0.9	i	-1.0	1	5	0.6	-4	2	0.67
Cc1ccc(N2CC(C)Cn3c2nc2c3c(=O)[nH]c(=O)n2C)cc1 (stereo not given)	-0.1	nt	i	1.6	26	15	1.9	7	nt	0.69
Cc1cc(Cl)c(S(=O)(=O)NC2CCCCC2)cc1OCC(=O)Nc1nncs1	nt	0.0	nt	1.2	nt	nt	nt	10	3	0.8
CCOc1ccc(C(F)(F)F)cc1NC(=O)COc1ccc(C(F)(F)F)cc1[N+](=O)[O-]	nt	0.2	nt	0.8	nt	nt	nt	-4	-2	0.69
CCCCNC(=S)Nc1ccc2nc(N3CCN(CC)CC3)cc(C)c2c1	18	-0.8	i	-14	4	-5	-0.3	16	-2	0.67
CSCCC(NS(=O)(=O)c1ccc(Cl)cc1)C(=O)OCC(=O)N1CCCc2ccccc21 (stereo not given)	1.3	-0.2	nt	0.0	-15	-22	-3.1	-10	-5	0.67
Cc1ccc(CNC(=O)c2ccc(S(=O)(=O)N(C)C)cc2)n1C	0.4	0.0	i	6.2	7	3	-1.2	-2	-2	0.66
CCOC(=O)CC/C(=N\NC(N)=O)c1ccc(OC)c(Cl)c1	4.0	-0.2	i	nt	-1	0	-3.5	-24	-15	nt
COC(=O)C1=C(C)N(Cc2ccc(OC)cc2)C(=O)/C1=C\c1ccco1	15	0.2	i	4.0	-6	2	4.7	34	-2	0.69
CCCn1c(NC(=O)c2cccc(C)c2C)nc2ccccc21	nt	0.8	nt	2.5	nt	nt	nt	?	22	0.67
COc1ccc(C(=O)Cn2nc(CNc3ccc(Br)cc3)[n+]3c2CCCCC3)cc1	13	-0.5	i	4.8	-50	-79	-15	59*	11	0.65
Cc1cc(C(=O)COC(=O)c2ccc(N)c([N+](=O)[O-])c2)c(C)n1Cc1ccc2c(c1)OCO2	-22	-0.6	i	4.5	5	5	-1.5	23	10	0.71
COc1cc(O)oc1C=Nc1ccccc1	nt	0.2	nt	6.1	nt	nt	nt	0	-9	0.69
COc1cc(CN2C(=O)C(NC(=O)c3ccco3)(C(F)(F)F)C3=C2CC(C)(C)CC3=O)cc(OC)c1 (stereo not given)	nt	-0.9	nt	1.3	nt	nt	nt	8	nt	0.66
Cc1ccc(C[n+]2cccc(-c3ccccc3)c2)c(C)c1	nt	-0.5	nt	1.2	nt	nt	nt	72*	97*	0.66
CCNS(=O)(=O)c1ccc(CCC(=O)NCc2ccccc2)cc1	-1.7	-0.2	nt	1.3	14	1	-1.6	-6	4	0.66
CN(C)c1ccc(/C=N/N2CCN(c3ccccn3)CC2)cc1	14	-5.2	i	nt	6	8	-1.4	4	-4	nt
NC(=O)c1ccc(NC(=O)c2cncn2-c2ccccc2)cc1	-1.8	1.5	i	2.6	5	-1	-4.5	-10	0	0.64
Cc1onc(-c2ccccc2)c1C(=O)OCc1nnc(-c2ccccc2)o1	-1.9	0.5	i	1.9	-26	-43	-7.9	12	1	0.66
COc1ccccc1OCC(=O)NNC(=O)c1cnccn1	nt	-0.1	nt	4.3	nt	nt	nt	-12	1	0.76
COCCn1c(=NC(=O)c2ccc(S(=O)(=O)N3CCOCC3)cc2)sc2cc(S(N)(=O)=O)ccc21	-3.1	1.3	i	-42	-7	-5	-2.4	0	-7	0.69
COc1ccc(-c2nc(-c3cccc(C)c3)nc(N3CCN(C)CC3)c2C#N)cc1	nt	-0.8	nt	-0.6	nt	nt	nt	16	3	0.76
CN1CCN(CCCN(Cc2cccs2)C(=S)Nc2ccc(Cl)cc2)CC1	6.7	-0.6	i	0.3	-12	-9	21	22	-4	0.7
CCOc1ncccc1C(=O)OCC(=O)Nc1cc(S(=O)(=O)N2CCCCC2)ccc1Cl	-5.9	nt	i	3.2	11	9	1.5	nt	nt	0.64
COc1ccccc1NC(=O)CSc1nc2c(sc3ccccc32)c(=O)n1CCN(C)C	-2.8	0.0	i	-31	-8	-6	-12	-7	-12	0.68
COc1ccc2c(c1)sc(=N)n2C	-2.1	-0.5	i	-0.2	58	21	3.2	72*	50	0.7

Part of the list above, limited to E coli growth.
SMILES | E coli growth
Cc1ccc(CNC(=O)c2ccc(S(=O)(=O)N(C)C)cc2)n1C | 0.66
O=C1CSc2ccc(C(=O)O)cc2N1 | 0.69

(listing goes on)
SMILES	MLL AF4-AF9 inh	A1 inh	FGF22 binding	UCH37 DUB inh	rRNA inh HTS	rRNA inh HTS OD600	rRNA inh HTS RFP	T cruzi inh	Beta cell apopt	E coli growth
COc1ccc(C(=O)Nc2nc3ccc(S(C)(=O)=O)cc3s2)cc1OC	0.1	-1.6	i	-8.3	0	12	-0.8	7	10	0.63
Cc1nn(CCC(=O)N2CCN(S(=O)(=O)c3ccc(Cl)cc3)CC2)c(C)c1C	0.8	-1.0	i	3.8	-2	-14	-0.4	-10	0	0.67
CNC(=O)CCCN1C(=O)c2ccccc2Sc2ncccc21	-5.1	0.5	i	2.6	14	8	0.0	-9	3	0.65
COc1ccc(C(=O)Nc2cc(C)c3c(=O)oc4ccccc4c3n2)cc1	-7.4	0.2	i	5.2	2	8	-2.9	-2	8	0.72
COc1cc(C2CC(=O)N3CN(Cc4ccccc4)CSC3=C2C#N)ccc1OCc1ccccc1 (stereo not given)	8.2	0.2	i	6.0	-10	-14	-18	29	-2	0.76
CCN1CCN(CCCNC(=O)c2ccc3c(Cl)c4c(nc3c2)CCCC4)CC1	4.4	-0.1	i	6.7	-10	-9	-3.1	7	14	0.62
CCC(C)n1c(SCC(=O)Nc2ccccc2C(F)(F)F)nc2ccsc2c1=O (stereo not given)	nt	1.0	nt	3.1	nt	nt	nt	-15	-1	0.72
O=C(CSc1ncnc2nc[nH]c12)Nc1nnc(SCc2ccc(Cl)c(Cl)c2)s1	-1.1	-0.4	nt	-1.2	-8	-3	9.6	-27	-7	0.67
Cn1c(=O)oc2cc(S(=O)(=O)NCCN3CCN(c4ccccc4F)CC3)ccc21	-2.3	nt	i	1.7	4	-4	-0.9	11	-5	0.76
COc1ccc(Cl)cc1NC(=O)Cn1c(=O)n2nc(C)nc2c2ccccc21	0.3	0.5	i	1.6	-6	-20	-4.5	-5	-2	0.77
Cc1ccc(S(=O)(=O)Oc2ccc(N3C(=O)C4C5CCC(C5)C4C3=O)cc2)cc1 (stereo not given)	-0.8	0.2	i	2.4	15	6	0.9	15	-3	0.76
COc1ccc(CCN(C)C2CCCN(S(=O)(=O)c3ccccc3)C2)cc1OC (stereo not given)	3.0	-0.1	i	3.9	5	8	2.2	25	nt	0.71
C/C(=N\N1CCN(C)CC1)c1ccc(Cl)c(Cl)c1	-0.2	-0.2	nt	nt	18	12	-0.7	18	-8	nt
Cc1nc(CNS(=O)(=O)c2ccc3c(c2)OCCO3)cs1	nt	-0.6	nt	2.3	nt	nt	nt	-2	3	0.67
CCCNC(=O)COC(=O)/C=C/c1ccco1	-2.7	-0.2	i	3.5	7	9	-13	-7	-1	0.65
CC[C@]12c3[nH]c4ccc(OC)cc4c3CCN1C(=O)C(CC(=O)NCc1cccc(C(F)(F)F)c1)C[C@@H]2C(=O)N1CCN(C(=O)c2ccco2)CC1 (stereo not given in full)	2.3	nt	i	-3.0	9	12	24	nt	nt	0.69
